# Mtb H37Rv – M. tuberculosis H37Rv growth inhibitors, H37Rv strain (AID 1626); actives 0.95% (n = 220,000); inhibition, % at 10 µM, or IC50 in µM where a hit was titrated; M. tuberculosis H37Rv growth inhibition; higher % means a stronger effect;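 active = confirmed in a dose series; inconclusive = inhibition above 80% but not taken into the dose series; inactive = below 80% or under 30% at every dose of the series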;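 also: bacteria incubated seven days before Alamar blue readout; 0% = bacteria only wells and 100% = bacteria with antibiotic wells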
# Arbovirus inh – antivirals against arbovirus infection; arbovirus infection cell-based antiviral screen; AID 1251; inhibition, % at 10 µM; actives 0.37% (n = 200,000);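 active = inhibition from about 30%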;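 also: bluetongue infection of BSR cells; cell survival read as ATP light after 72 h; 0% = infected wells without compound and 100% = uninfected wells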
# RecA splice inh – inhibitors of M. tuberculosis RecA intein splicing; cell-free RecA intein splicing, fluorescence; inhibition, %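 (about 9 µM by stock and volumes)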; actives 0.75% (n = 290,000); AID 2221; in the data active = inhibition above about 30%; inconclusive = no clear call, values can overlap the other calls;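 also: 0% = vehicle wells and 100% = reference inhibitor control wells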
# Target sequence (P9WHJ3 whole entry, looked up, canonical isoform): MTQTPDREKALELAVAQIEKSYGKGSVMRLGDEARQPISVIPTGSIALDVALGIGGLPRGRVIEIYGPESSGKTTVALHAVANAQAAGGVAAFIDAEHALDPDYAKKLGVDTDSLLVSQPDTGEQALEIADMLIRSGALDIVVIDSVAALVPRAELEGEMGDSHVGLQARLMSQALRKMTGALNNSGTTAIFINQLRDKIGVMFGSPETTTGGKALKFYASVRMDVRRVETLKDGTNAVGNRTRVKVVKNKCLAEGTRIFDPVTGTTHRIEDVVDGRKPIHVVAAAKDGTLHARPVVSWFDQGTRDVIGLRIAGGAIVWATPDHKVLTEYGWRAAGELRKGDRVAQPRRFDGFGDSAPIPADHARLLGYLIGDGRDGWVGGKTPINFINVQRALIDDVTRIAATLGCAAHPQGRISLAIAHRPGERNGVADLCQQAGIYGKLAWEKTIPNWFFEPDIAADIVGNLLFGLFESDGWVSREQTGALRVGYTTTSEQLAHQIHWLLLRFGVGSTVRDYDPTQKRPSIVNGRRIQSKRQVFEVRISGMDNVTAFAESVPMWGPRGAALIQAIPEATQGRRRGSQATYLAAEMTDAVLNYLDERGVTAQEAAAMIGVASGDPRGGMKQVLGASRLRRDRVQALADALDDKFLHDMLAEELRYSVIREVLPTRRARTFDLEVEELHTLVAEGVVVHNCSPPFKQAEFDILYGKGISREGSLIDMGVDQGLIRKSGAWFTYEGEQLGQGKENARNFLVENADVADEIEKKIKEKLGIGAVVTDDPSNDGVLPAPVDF
# YopH PTP inh – blocks Yersinia enterocolitica YopH tyrosine phosphatase. inhibition, %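 (about 10 µM by stock and volumes)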. actives 0.16% (n = 140,000). fluorescence Ex485/Em525. AID 898;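 active = inhibition of 50% or more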;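 also: controls were vehicle for no effect and minimum signal wells for full effect; inactives centre near -20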
# Mtb betalactam – beta-lactam sensitization of Mtb H37Rv; actives 0.27% (n = 330,000); inhibition, % at 25 µM; M. tuberculosis H37Rv growth with meropenem, percent inhibition; hits of this screen are not shown here;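 active = about 74% or more and at least 40 points above the plate without the antibiotic, then above 30% in a dose series; inconclusive = first-round hits that could not be retested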;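 also: growth measured after seven days incubation then overnight dye step; 0% = bacteria only wells and 100% = bacteria with antibiotic; twin plates without the antibiotic show which effects depend on it; some results filed as inactive read as strong as hits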
# Arbovirus inh repeat – second read-out of Arbovirus inh, no call of its own (marks repeat the call); inhibition, %; measured here: 10K subset replicate screen; many hits read low in the repeat;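 first of two repeat runs on a subset; 0% = infected and 100% = uninfected wells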
# Numbers without * were called inactive; ? = inconclusive; / = not tested or not shown; & = joins results of further samples. These rows are one share of the data; count on the stated rates, not on these rows.
SMILES,Mtb H37Rv,Arbovirus inh,RecA splice inh,YopH PTP inh,Mtb betalactam,others
Cc1c(Cl)cccc1NC(=S)Nn1cnnc1,6%,2,0.0,/,-8,
CCCCc1nc2cc(C(=O)N(C)CCc3cn[nH]c3)ccc2o1,/,/,1.7,/,-10,
CC1CCC2(CC1)SCC(=O)N2c1ccc(F)cc1 (configuration not stated),1%,/,3.2,/,-5,
COc1ccc(NC(=O)N2CCCC2C(=O)NCc2ccc(F)cc2)cc1 (configuration not stated),-3%,3,/,-2,-1,
COc1cc2[nH]c(=S)n(Cc3ccc(C)o3)c(=O)c2cc1OC,-4%,0,-4.9,-51,6,
COc1cccc(NS(=O)(=O)c2ccc3c(c2)N(C(C)=O)CCO3)c1,/,/,-0.5,/,0,
Cc1sc2ncn(/N=C/c3ccco3)c(=O)c2c1C,2%,/,-6.6,/,0,
Cc1ccc(NC(=O)C2C3/C=C\CCCCC32)cc1 (configuration not stated),-2%,6,-2.6,-27,-10,
CCOc1ccc(N2CC(C(=O)NC3CCCCCC3)CC2=O)cc1 (configuration not stated),/,/,2.3,/,-6,
CCn1cc(C(=O)O)c(=O)c2cc(S(=O)(=O)N3CCCCCC3)ccc21,/,/,-2.7,/,1,
Cc1ccccc1OCCCCCn1ccnc1,6%,7,0.7,-44,-13,
CC(=O)N1CCSc2ccc(S(=O)(=O)Nc3ccc(C)cc3)cc21,/,/,12,/,1,
O=C1NC(=S)N/C1=C/c1ccc2c(c1)OCO2,/,/,-4.2,/,1,
NC(=O)[C@@H]1CCCNc2c(I)cc([N+](=O)[O-])cc2C(=O)N[C@@H](CCC(=O)O)C(=O)N[C@@H](CO)C(=O)N1,-17%,-3,/,-38,-4,
COC(=O)c1cc2sccc2n1Cc1nc(-c2ccc(Cl)cc2)oc1C,-3%,-4,-0.2,-37,4,
C=CCc1c(C)nc(SCC(=C)C)[nH]c1=O,3%,5,0.3,-38,6,
Cc1nn(-c2ccc(Cl)cc2)c(Cl)c1/C=C(\C#N)C(N)=O,2%,16,16,-25,0,
O=C(O)/C=C/c1ccc(S(=O)(=O)Nc2ccc3[nH]c(=O)[nH]c3c2)cc1,/,/,7.1,/,-5,
COCCNC(=O)CN1CCC(n2c(C)nc3cc(C(F)(F)F)ccc32)CC1,-6%,4,-3.1,-34,-4,
CCN(CC(=O)Nc1c(F)cccc1F)C(=O)CCc1c[nH]c2ccccc12,5%,0,1.2,/,-6,
O=C(NCc1cc(C(F)(F)F)ccc1F)C1CCC(=O)N(C2CC2)C1 (configuration not stated),/,/,-1.3,/,-12,
CCCCC(=O)Nc1ccc(C(=O)Nc2nnc(COC)s2)cc1,5%,7,-4.0,-27,-12,
COc1ccc(/C=N/N2C(=O)C3C4C=CC(CC4)C3C2=O)c(OC)c1 (configuration not stated),-5%,11,0.0,/,-4,
Cc1ccc(S(=O)(=O)N2CCOCC2)cc1NC(=O)COC(=O)CSc1ccc(Br)cc1C,-1%,7,5.8,9,10,
O=C(N/N=C/c1ccsc1)C1CC1,-7%,6,-2.4,/,3,
CCOC(=O)NN1C(=O)c2ccccc2NC1c1ccccn1 (configuration not stated),3%,7,-0.5,/,1,
CC(C)Cn1c(N)c(C(=O)CSc2cc(Cl)ccc2Cl)c(=O)n(C)c1=O,-5%,-10,/,-22,2,
Cc1ccc(-n2nc3c(=O)n(CC(=O)NCCCc4ccccc4)nc(C)c3c2C)cc1,/,/,1.2,/,3,
C=CCN(c1ccccc1C(=O)NCC(=O)O)S(=O)(=O)c1ccc(C)cc1,-17%,/,-1.6,/,-2,
OC(CCc1cccc(Cl)c1)c1cccs1 (configuration not stated),/,/,4.1,/,9,
N=c1sccn1CC(=O)Nc1ccc(SC(F)F)cc1,7%,-14,0.2,/,10,
Cc1ccc(SCC(=O)N2CCN(c3ccccn3)CC2)cc1,-2%,/,2.8,/,4,
O=C(NC12CC3CC(CC(C3)C1)C2)c1ccc(N2CCNCC2)c([N+](=O)[O-])c1,2%,/,-0.7,/,-2,
Cc1cc(C)c(NC(=O)c2cccs2)c(C)c1NC(=O)c1cccs1,/,/,1.8,/,-7,
CCN(CCO)C(=S)Nc1cc(S(=O)(=O)N(C)C)ccc1C,-1%,4,-1.2,/,-8,
Nc1ccn([C@H]2C[C@H](O)[C@@H](CO)O2)c(=O)n1,/,/,1.6&-2.1,/,5&-3,
O=C(NC1CCCC1)C1CC(c2ccc(F)cc2)=NO1 (configuration not stated),1%,2,-2.0,-45,0,
COc1ccc(C(CC(=O)N2CCCC2)c2c(OC)cc(OC)c3c(-c4ccccc4)cc(=O)oc23)cc1 (configuration not stated),-10%,/,20,/,30,
O=C1C(C=Nc2ccccc2O)=C(O)c2ccccc21,57%,-13,-2.5,-15,94,
O=C(c1cc([N+](=O)[O-])ccc1Cl)N1c2ccccc2Sc2ccccc21,10%,18,-2.9,-24,-2,
O=C(COC(=O)Cn1nnc2ccccc21)Nc1ccccc1Br,0%,3,0.9,-33,0,
Cc1cc(NC(=O)CCCN2C(=O)/C(=C/c3cccs3)SC2=S)no1,/,2,-8.6,-3,2,
Cc1ccc(-c2ccc(/C=N\n3cnnc3)o2)c(Br)c1,/,/,-1.6,/,10,
O=C(NCn1ccc(=O)[nH]c1=S)c1ccccc1,-6%,11,0.6,-36,-3,
O=C(Cc1ccccc1)Nc1ccc(N2CCCCC2)cc1,1%,-3,-2.2,/,8,
Cc1nc(-c2ccccc2)nc2[nH]c(=O)n(-c3ccccc3)c(=O)c12,0%,-12,3.9,5,1,
CSCCC(NC(=O)c1ccco1)C(=O)OC(C)C(=O)NC(=O)NC1CCCCC1 (configuration not stated),0%,0,/,15,?,
Cc1nc2c(sc(=S)n2Cc2ccco2)c(=O)n1CC(=O)Nc1ccccc1Cl,/,/,2.3,/,-4,
O=C(CSc1ccc(F)cc1)N1CCOCC1,/,/,-2.2,/,0,
Cn1cccc1/C=C1\Cc2ccccc2C1=O,/,-6,-13,/,1,
COc1cccc(C2NC(=O)NC(C)=C2C(=O)OCCSC)c1OC (configuration not stated),2%,-1,8.8,-49,8,Arbovirus inh repeat=-1
CCn1cc(C(=O)N2CCc3ccccc32)c(=O)c2cc(S(=O)(=O)N(C)C3CCCCC3)ccc21,1%,-5,2.1,9,5,
Cc1ccccc1C(=O)Nc1cccc(NC(=O)c2ncn[nH]2)c1,-19%,-9,-0.3,/,-9,
Cc1ccccc1NS(=O)(=O)c1ccc(C(=O)NCCCN2CCOCC2)cc1,/,/,2.4,/,-7,
Cc1c(NC(=O)C(C)OC(=O)CNC(=O)c2ccc(C(C)(C)C)cc2)c(=O)n(-c2ccccc2)n1C (configuration not stated),-10%,9,/,-6,-10,
O=C(c1c(F)cccc1F)N1CCN(CCOc2ccccc2)CC1,/,/,-2.0,/,3,
CC1CC(C)CN(CCCNC(=O)C2CCC(=O)N2C2CCCC2)C1 (configuration not stated),-1%,6,3.5,-27,3,
CC(C)CC1CC(=O)OC1(C)C(=O)CSc1nc2ccccc2s1 (configuration not stated),-4%,4,2.7,18,24,
CC(=O)Nc1ccc(S(=O)(=O)NCC(=O)OCC(=O)N2CCN(c3ccccc3)CC2)cc1,5%,-2,-6.4,-20,?,
CCOc1ccccc1OCCCC(=O)NC1=NCCS1,2%,5,1.0,-46,1,

# Carrying on:
SMILES,Mtb H37Rv,Arbovirus inh,RecA splice inh,YopH PTP inh,Mtb betalactam,others
CC1C(=O)CCN(C(C)(C)C)C1C (configuration not stated),-13%,1,-2.4,-4,-9,
COc1ccc(CNS(=O)(=O)c2ccc(-c3ccc(=O)[nH]n3)o2)cc1,/,/,2.3,/,-6,
COc1ccc(S(=O)(=O)NCC2CCC(C(=O)NCC(OC)OC)CC2)cc1 (configuration not stated),0%,4,1.8,/,-9,
Cc1cc(C)cc(C(=O)NCC(=O)NCc2ccc(S(N)(=O)=O)cc2)c1,/,/,-0.5,/,-4,
O=C(/C=C/c1ccco1)Nc1ccc2c(c1)OCCO2,4%,7,-3.0,/,-5,
CC(=O)N(C)c1ccc(NC(=O)c2ccco2)cc1,/,-2,-2.7,-19,-8,
CS(=O)(=O)NCCC1=CCCCC1,-4%,3,3.1,-12,-6,
C/C(CCN1CCCCc2nc(C)c(C)cc21)=N\O[C@H](C)c1cn([C@H](CO)Cc2ccccc2)nn1,/,5,-2.7,-20,0,
O=C/C=C/c1coc2ccc3ccccc3c2c1=O,-7%,/,/,/,-2,
COc1ccc(N=C2S/C(=C\c3cc(C)n(C)c3C)C(=O)N2CC(C)C)cc1,/,-15,1.8,-17,4,
Cc1ccc(-c2nc3c(c(=O)c4ccccc4n3C)c(=O)n2-c2ccc(F)cc2)cc1,-1%,/,0.4,/,-9,
C/C(=N\NC(=O)c1cccc(S(=O)(=O)N2CCCC2)c1)c1ccc(F)cc1,/,/,-1.3,/,-4,
Cc1cc(C)n(-c2nc3ccccc3nc2N2CCN(S(=O)(=O)c3cccc(C#N)c3)CC2)n1,/,/,0.3,/,0,
O=C(NCC1COc2ccccc2O1)C1C2C=CC3(CN(Cc4ccccc4Cl)C(=O)C13)O2 (configuration not stated),-3%,6,3.0,-34,0,Arbovirus inh repeat=1
O=C(COc1ccc(Br)cc1)N1CCN(Cc2c[nH]c3ccccc23)CC1,/,-4,3.7,-1,-5,
CCCCn1c(N)c(N(CCOC)C(=O)COC(=O)C(C)(C)Oc2ccc(Cl)cc2)c(=O)[nH]c1=O,/,/,-1.3,/,-11,
O=C(NC(C(=O)N/N=C/c1ccncc1)c1n[nH]c(=O)c2ccccc12)c1ccccc1 (configuration not stated),-9%,/,-0.4,/,-1,
CSCCC(C(=O)OC1CCOC1=O)N1C(=O)c2ccccc2C1=O (configuration not stated),-4%,5,0.1,/,5,
COc1ccccc1C1CCN(C(=O)c2cccc([N+](=O)[O-])c2)CC1,3%,/,2.5,/,24,
CCCC(c1nnnn1CCOC)N1CCN(Cc2ccccc2)CC1 (configuration not stated),1%,7,1.9,4,-10,
O=C(NCc1ccccc1)c1cc(-c2cccc(O)c2)on1,1%,-1,-2.3,/,-4,
Cc1cc(-n2c(C)cc(C(=S)N3CCOCC3)c2C)ccc1Br,3%,-3,10,14,5,
COc1ccc(-n2nc3c(c2NC(=O)c2ccccc2S(=O)(=O)C(F)F)CS(=O)(=O)C3)cc1,/,/,0.9,/,3,
O=C(COc1ccccc1)Nc1nc(-c2ccncc2)cs1,/,/,-0.2,/,-13,
Cc1nc2ccc(Br)cn2c1C(=O)N/N=C\c1ccccc1[N+](=O)[O-],-8%,-1,-2.3,/,-2,
COC(=O)C1(C)NC(c2ccc(O)cc2)C2C(=O)N(c3ccccc3)C(=O)C21 (configuration not stated),/,/,-0.2,/,0,
Cc1cc(C)nc(Sc2nc(Cl)nc(N(c3ccccc3)c3ccccc3)n2)n1,-3%,4,-1.8,-7,6,
C=CCOC(=O)C1=C[C@@H](c2csc3ccccc23)[C@H](CCCO)[C@@H](OCC)O1,-4%,/,6.1,/,10,
O=NN(CCc1ccncc1)c1ccc(OCc2ccccc2)cc1,8%,-6,2.7,/,40,
CC(=O)NC(c1cccs1)c1cc([N+](=O)[O-])c2cccnc2c1O (configuration not stated),-22%,-19,4.6,-9,16,
Cc1c(C#N)c(NC(=O)c2cccc(Cl)c2)n(Cc2ccccc2)c1C,4%,-3,1.4,-1,3,
O=C1c2ccccc2-c2c1nc1c([n+]2[O-])CCCC1,-6%,-16,37*,-4,-2,
C=C1N(C)c2cc([N+](=O)[O-])c(N)cc2C1(C)C,43%,-2,-3.4,/,6,
Cc1sc2ncnc(NCC(C)(C)N3CCOCC3)c2c1C,-4%,6,2.3,-20,8,
CC(C)CCn1c(N2CCOCC2)nc2c1c(=O)n(CC(N)=O)c(=O)n2C,17%,9,-2.2,3,-3,
CCOC(=O)N1CCC(NC(=O)c2cccn3c(=O)c4cc(Br)ccc4nc23)CC1,9%,1,-4.1,-6,13,
O=C(Nc1sccc1C(=O)NCc1ccco1)c1cccnc1,-7%,2,4.2,-27,61,
O=C(Cn1nnc(-c2ccccc2)n1)N=Nc1c(O)[nH]c2ccccc12,-1%,2,-0.5,-15,-5,

# Screening data (PubChem BioAssay)
